Screening results: PubChem, National Center for Advancing Translational Sciences (NCATS)
EPAC2 ant val: Validation qHTS for antagonist of cAMP-regulated guanine nucleotide exchange factor 4 (EPAC2); actives 1.7% (n = 16,000); EPAC2 Rap1B BODIPY-GDP exchange, fluorescence; AID 1645886, 2021; Rap guanine nucleotide exchange factor 4 (Homo sapiens), Q8WZA2; Potency, µM (top dose mostly 112 µM), inactives show at the top dose activity, negative = inhibition, most hits filed as inhibitors; active means well fitted inhibition curve with a large enough effect; inconclusive means small, poorly fitted or top-dose-only effect; inactive means no such curve, though single readings can be large or run the other way;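 further: 100% = activation by cAMP agonist control; nearly all actives have a fitted effect of over 40% in size; the record reuses the description of the EPAC1 agonist screen; inactives centre near -10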
Target sequence (Q8WZA2 whole entry, looked up): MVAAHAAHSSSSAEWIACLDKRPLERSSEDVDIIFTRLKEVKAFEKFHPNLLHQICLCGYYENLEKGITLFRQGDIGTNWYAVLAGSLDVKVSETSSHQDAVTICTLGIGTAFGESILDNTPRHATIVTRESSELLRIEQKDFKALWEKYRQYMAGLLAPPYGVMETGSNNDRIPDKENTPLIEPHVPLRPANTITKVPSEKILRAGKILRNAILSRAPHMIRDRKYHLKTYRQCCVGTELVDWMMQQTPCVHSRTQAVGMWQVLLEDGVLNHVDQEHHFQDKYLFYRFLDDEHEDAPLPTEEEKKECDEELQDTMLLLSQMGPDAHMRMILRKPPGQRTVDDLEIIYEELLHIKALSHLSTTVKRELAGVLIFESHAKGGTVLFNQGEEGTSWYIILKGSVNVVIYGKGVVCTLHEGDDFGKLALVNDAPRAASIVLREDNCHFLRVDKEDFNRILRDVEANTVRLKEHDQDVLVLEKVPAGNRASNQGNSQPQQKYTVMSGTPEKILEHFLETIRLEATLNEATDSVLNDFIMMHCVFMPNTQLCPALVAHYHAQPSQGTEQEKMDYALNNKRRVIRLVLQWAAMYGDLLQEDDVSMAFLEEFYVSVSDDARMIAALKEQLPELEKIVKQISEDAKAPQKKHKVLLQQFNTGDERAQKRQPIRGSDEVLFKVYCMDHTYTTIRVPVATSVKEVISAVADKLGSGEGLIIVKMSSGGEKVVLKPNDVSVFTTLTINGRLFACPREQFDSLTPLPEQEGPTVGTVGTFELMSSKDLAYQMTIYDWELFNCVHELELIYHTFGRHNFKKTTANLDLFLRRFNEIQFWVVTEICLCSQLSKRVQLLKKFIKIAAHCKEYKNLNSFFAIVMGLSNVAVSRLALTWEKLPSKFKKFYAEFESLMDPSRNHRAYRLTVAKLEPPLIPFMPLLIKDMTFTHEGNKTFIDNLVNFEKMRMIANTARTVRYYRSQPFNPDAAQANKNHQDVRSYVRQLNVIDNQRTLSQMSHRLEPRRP
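Normalized against a 6.5 mM cAMP agonist control, compounds were tested on 100 nM EPAC2 exchanging Rap1B-bound BODIPY-GDP (250 nM) for 50 uM GDP. Fluorescence drop (ex 480, em 540 nm) was tracked at room temperature over 30 min at 5-min intervals.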
An asterisk follows results filed as active; & = joins results of further samples; ! = not active in a repeat; [ ] = another dose, or the depositor's remark. Potency means the concentration at half of the fitted maximal effect. Not all compounds are listed; rates above refer to the full screens.

For CN(C)c1ccc(/C=C/c2ccnc3ccc(F)cc23)cc1 the results were EPAC2 ant val inconclusive.
Screening CN(Cc1ccco1)c1ccnc(-c2ccccc2C(F)(F)F)n1 returned EPAC2 ant val -32%.
Screening C[N+]1(C)CC(O)[C@H](C(=O)[O-])C1 (stereo partly specified) returned EPAC2 ant val 1%.
Cc1cnc(SCc2ccccn2)nc1C1CCCN(C(=O)c2scc3c2CCCC3)C1 (stereo unspecified) was read as EPAC2 ant val inconclusive.
O=C(c1ccncc1)N1CCC2(CCCN(c3ccccn3)C2)CC1 was read as EPAC2 ant val -9%.
`CC[C@@H]1Cc2cc(O)ccc2C2=C1c1ccc(O)cc1C[C@H]2CC` gave EPAC2 ant val -9%.
Nc1nc2c(nc(Br)n2C2OC(CO)C(O)C2O)c(=O)[nH]1 (stereo unspecified) was read as EPAC2 ant val -19%.
Nc1nc2c(ncn2[C@@H]2O[C@H](CO)[C@@H](O)[C@H]2O)c(=O)[nH]1 was read as EPAC2 ant val -14%.
`CC(C)=CCC/C(C)=C/CC/C(C)=C/CC/C(C)=C/CO` gave EPAC2 ant val -31%&-24%.
For CCCOC(=O)C1=C(C)CS[C@@H]2[C@H](NC(=O)COc3ccccc3)C(=O)N12 the results were EPAC2 ant val inconclusive.
`COc1ccc(-c2cc(=O)c3ccc(O)cc3o2)cc1` gave EPAC2 ant val -9%.
CC(C)NC(=O)c1cn(C2CCC(NC(=O)C(C)(C)C)CC2)nn1 (stereo unspecified) was read as EPAC2 ant val inconclusive.
`Clc1ccccc1-c1cc(NCc2cccnc2)ncn1` gave EPAC2 ant val -15%.
`COc1ccc(CNc2ccnc(-c3ccccc3Cl)n2)c(OC)c1` gave EPAC2 ant val inconclusive.
For O=C(C[N+]12CCCc3cccc(c31)CCC2)c1ccc2ccccc2c1 the results were EPAC2 ant val -12%.
`O=C(NCc1cccnc1)[C@@H]1CC=C[C@@H]2CCN(Cc3ccc(Cl)c(Cl)c3)C(=O)[C@@H]21` gave EPAC2 ant val inconclusive.
Screening CCN(CC)CCNC(=O)COc1ccc(OC)cc1 returned EPAC2 ant val 16%.
`Cc1ccc(/C=N/n2c(-c3ccccc3)csc2=S)cc1` gave EPAC2 ant val inconclusive.
COC(=O)c1ccc(-c2cccc3c2OC(CNC(=O)/C=C/c2ccc(OC)c(OC)c2)C3)nc1 (stereo unspecified) was read as EPAC2 ant val -27%.
`C=C(NC(=O)C(=C)NC(=O)c1csc(C2=N[C@@H]3c4csc(n4)[C@H]4NC(=O)c5csc(n5)[C@H]([C@](C)(O)[C@@H](C)O)NC(=O)[C@H]5CSC(=N5)C(=CC)NC(=O)C([C@@H](C)O)NC(=O)c5csc(n5)[C@]3(CC2)NC(=O)[C@H](C)NC(=O)C(=C)NC(=O)[C@H](C)NC(=O)C([C@@H](C)CC)NC2C=Cc3c([C@H](C)O)cc(nc3C2O)C(=O)O[C@@H]4C)n1)C(N)=O` (stereo partly specified) gave EPAC2 ant val 0%[56.6 µM].
For CC(=O)Oc1ccc(/C=C/C(=O)CC2OC(Oc3cc(OC(C)=O)c4c(c3)O[C@@H](c3ccc(OC(C)=O)cc3)CC4=O)C(OC(C)=O)C(OC(C)=O)C2OC(C)=O)cc1 (stereo partly specified) the results were EPAC2 ant val -22%.
CCCCCCc1ccc(N2C[C@H](Cc3ccccc3)[C@@H](CC(=O)NCc3ccc(OC)cc3)C2=O)cc1 was read as EPAC2 ant val inconclusive.
Screening Cc1c(C(=O)N2CC3CCC2C3)sc2ncnc(NCCc3ccccn3)c12 (stereo unspecified) returned EPAC2 ant val -6%.
For COc1ccccc1N1CCN(CCCCN2C(=O)c3ccccc3C2=O)CC1 the results were EPAC2 ant val -6%&-20%&-24%.

Reprinted at random: 5 entries already listed.
`Cc1ccc(/C=N/n2c(-c3ccccc3)csc2=S)cc1` gave EPAC2 ant val inconclusive.
Screening Cc1c(C(=O)N2CC3CCC2C3)sc2ncnc(NCCc3ccccn3)c12 (stereo unspecified) returned EPAC2 ant val -6%.
For CC(=O)Oc1ccc(/C=C/C(=O)CC2OC(Oc3cc(OC(C)=O)c4c(c3)O[C@@H](c3ccc(OC(C)=O)cc3)CC4=O)C(OC(C)=O)C(OC(C)=O)C2OC(C)=O)cc1 (stereo partly specified) the results were EPAC2 ant val -22%.
`COc1ccc(CNc2ccnc(-c3ccccc3Cl)n2)c(OC)c1` gave EPAC2 ant val inconclusive.
Nc1nc2c(nc(Br)n2C2OC(CO)C(O)C2O)c(=O)[nH]1 (stereo unspecified) was read as EPAC2 ant val -19%.

Entries from the list above with an NH in an aromatic ring:
Nc1nc2c(nc(Br)n2C2OC(CO)C(O)C2O)c(=O)[nH]1 (stereo unspecified) was read as EPAC2 ant val -19%.
Nc1nc2c(ncn2[C@@H]2O[C@H](CO)[C@@H](O)[C@H]2O)c(=O)[nH]1 was read as EPAC2 ant val -14%.

Additional structures.
`CCCCC/C=C\C/C=C\C/C=C\C/C=C\CCCC(=O)O[C@@H](CO)COC(=O)CCCCCCCCCCCCCCCCC` gave EPAC2 ant val -27%[11.4 µM].
For CC(C)[C@H](CO)Nc1nc(Nc2ccc(C(=O)O)c(Cl)c2)c2ncn(C(C)C)c2n1 the results were EPAC2 ant val inconclusive.
For C[C@]12CCC(=O)C=C1CC[C@@H]1[C@@H]2[C@@H](O)C[C@@]2(C)[C@H]1CC[C@]2(O)C(=O)COP(=O)(O)O the results were EPAC2 ant val -1%.
Cc1cccc2c3c(ccc12)C1=C(C(=O)C3=O)C(C)CO1 (stereo unspecified) was read as EPAC2 ant val inconclusive.
COc1ccc(C(=O)NCC2Cc3cc(F)cc(-c4cncnc4)c3O2)cc1 (stereo unspecified) was read as EPAC2 ant val -28%.
`O=C(C[n+]1cccc(Br)c1)c1ccc(F)cc1` gave EPAC2 ant val -4%.
CC(=O)Oc1cccc(O)c1 was read as EPAC2 ant val -33%.
`Cc1noc(C)c1-c1nc(NCc2cccs2)c2ccccc2n1` gave EPAC2 ant val -14%.
Screening CCC(=O)N[C@@H]1c2ccccc2C2(CCN(Cc3ccccn3)CC2)[C@H]1OC returned EPAC2 ant val 0%.
Screening CCc1c(C)nc2c(OC)cccc2c1Cl returned EPAC2 ant val inconclusive.
`COc1ccc2cc1Oc1ccc(cc1)C[C@H]1c3c(cc4c(c3Oc3cc5c(cc3OC)CCN(C)[C@@H]5C2)OCO4)CCN1C` gave EPAC2 ant val -8%.
For OC[C@H]1O[C@@H]2O[C@H]3[C@H](O)[C@@H](O)[C@@H](O[C@H]4[C@H](O)[C@@H](O)[C@@H](O[C@H]5[C@H](O)[C@@H](O)[C@@H](O[C@H]6[C@H](O)[C@@H](O)[C@@H](O[C@H]7[C@H](O)[C@@H](O)[C@@H](O[C@H]8[C@H](O)[C@@H](O)[C@@H](O[C@H]1[C@H](O)[C@H]2O)O[C@@H]8CO)O[C@@H]7CO)O[C@@H]6CO)O[C@@H]5CO)O[C@@H]4CO)O[C@@H]3CO the results were EPAC2 ant val -12%.
`CC(C)CCCC(C)C1CCC2C3CC[C@H]4CC(=O)CC[C@@]4(C)C3CC[C@@]12C` (stereo partly specified) gave EPAC2 ant val -11%.
CC1=C(/C=C/C(C)=C/C=C/C(C)=C\CO)C(C)(C)CCC1 was read as EPAC2 ant val -27%.
COc1ccc(C(=O)NCc2nc(-c3cccc(NC(=O)c4ccc(C)s4)c3)oc2C)cc1 was read as EPAC2 ant val -1%.
CC[C@@]1(O)C(=O)OCc2c1cc1n(c2=O)Cc2cc3c(CN(C)C)c(O)ccc3nc2-1 was read as EPAC2 ant val 87%[activator].
`CCOC(=O)N1CCN(/[N+]([O-])=N/Oc2ccc([N+](=O)[O-])cc2[N+](=O)[O-])CC1` gave EPAC2 ant val 3%.
`CN(Cc1cnc2nc(N)nc(N)c2n1)c1ccc(C(=O)N[C@@H](CCC(=O)O)C(=O)O)cc1` gave EPAC2 ant val inconclusive.
`CC1CN(CC(=O)NCc2ccc3c(c2)OCO3)Cc2cc(Cl)ccc2O1` (stereo unspecified) gave EPAC2 ant val -4%.
`N#Cc1cc2nc(O)c(O)nc2cc1[N+](=O)[O-]` gave EPAC2 ant val inconclusive.
For Cc1ccccc1N=C(N)Nc1ccccc1C the results were EPAC2 ant val -6%&-20%.
For CCNc1ncc2nc(-c3cccs3)c(=O)n(-c3ccccc3)c2n1 the results were EPAC2 ant val inconclusive.
Screening O=C(NCCc1nnc2n1CCN(Cc1ccc(F)cc1)CC2)c1ccc(F)cc1 returned EPAC2 ant val -15%.
For OC(CCN1CCCCC1)(c1ccccc1)C1CC2C=CC1C2 (stereo unspecified) the results were EPAC2 ant val -2%&19%&1%.
For CC[C@@H]1[C@H]2CCCC(=O)N3CC[C@@H](C[C@@H]1Nc1ccccc1)[C@@H]23 the results were EPAC2 ant val -13%.
Screening CCOC(=O)C[C@H]1c2cc(F)ccc2S(=O)(=O)N1c1ccccc1 returned EPAC2 ant val -18%.
Screening C=CC[C@@H]1/C=C(\C)C[C@H](C)C[C@H](OC)[C@H]2O[C@@](O)(C(=O)C(=O)N3CCCC[C@H]3C(=O)O[C@H](/C(C)=C/[C@@H]3CC[C@@H](O)[C@H](OC)C3)[C@H](C)[C@@H](O)CC1=O)[C@H](C)C[C@@H]2OC returned EPAC2 ant val 79µM*.
C=C1CCC(O)C/C1=C\C=C1/CCCC2(C)C1CCC2C(C)CCCC(C)C (stereo unspecified) was read as EPAC2 ant val inconclusive.
Screening COc1cc2c(cc1O)-c1ccccc1CN(C)C2 returned EPAC2 ant val -3%.
Screening O=C1CC[C@@H](CN(Cc2cccnc2)C2CCN(c3ccc(NC(=O)c4cnccn4)cc3)CC2)N1 returned EPAC2 ant val -19%.
For Cc1ccccc1N1C(=O)c2cc(S(N)(=O)=O)c(Cl)cc2NC1C (stereo unspecified) the results were EPAC2 ant val -21%&-13%&-10%&35%.
Screening O=C(O)C[C@H]1c2cc(F)ccc2S(=O)(=O)N1Cc1ccccc1 returned EPAC2 ant val 12%.
Screening Nc1ccc(O)c(C(=O)O)c1 returned EPAC2 ant val 8%.
Cc1c(C(=O)N2CCOc3ccc(Cl)cc3C2)sc2ncnc(NCCc3ccccn3)c12 was read as EPAC2 ant val -18%.
For CCNc1ncc2nc(-c3ccc(Cl)cc3)c(=O)n(Cc3ccc(F)cc3)c2n1 the results were EPAC2 ant val -2%.
Cc1ccccc1-c1nc(NC2CCNCC2)c2ccccc2n1 was read as EPAC2 ant val -7%.
Cc1noc(C)c1C(=O)N1CCC2(CCN(C(=O)Nc3ccccc3)CC2)CC1 was read as EPAC2 ant val -23%.
For Cc1cnc(CNc2ccnc(-c3cccnc3)n2)cn1 the results were EPAC2 ant val -11%.
`COCC(=O)N1CCC2(CC1)CCN(C(=O)Nc1cccc(C#N)c1)CC2` gave EPAC2 ant val -21%.
Screening N#CC[C@H](Cc1ccccc1)N1CCN(Cc2ccccc2)CCC1=O returned EPAC2 ant val 0%.
For OC(c1ccc2c(c1)CN(Cc1cccn1-c1cccnc1)CCO2)C1CCCCC1 (stereo unspecified) the results were EPAC2 ant val -10%.
For C[C@@H](CSc1ccc(Br)cc1)CN1CC[C@H](C(C)(C)C)CCC1=O the results were EPAC2 ant val inconclusive.
For O=C1CC[C@@H](C(=O)NCC2Cc3cc(Cl)cc(-c4ccc5[nH]ccc5c4)c3O2)N1 (stereo partly specified) the results were EPAC2 ant val 1%.
For Cc1cccc(C(=O)N2CCOc3ccc(CN(C)Cc4cc(C5CC5)n[nH]4)cc3C2)n1 the results were EPAC2 ant val -11%.
For CN1CCN(CCCN2c3ccccc3Sc3ccc(C(F)(F)F)cc32)CC1 the results were EPAC2 ant val 56µM*!.
For CC(C)[C@H](NC(=O)[C@H](CC(=O)O)NC(=O)[C@H](CCCCN)NC(=O)[C@@H](N)CCCN=C(N)N)C(=O)N[C@@H](Cc1ccc(O)cc1)C(=O)O the results were EPAC2 ant val 30%.
`CN(C)CC[C@@H](c1ccc(Br)cc1)c1ccccn1` gave EPAC2 ant val -17%&6%.
`CC(C)NC[C@H](O)COc1cccc2ccccc12` gave EPAC2 ant val inconclusive.
Screening NC(=NC1C2CC3CC(C2)CC1C3)Nc1ccc(I)cc1 (stereo unspecified) returned EPAC2 ant val 2%&-19%&-27%.
N#CCCn1c(=O)cnc2cnc(OCc3ccccc3)nc21 was read as EPAC2 ant val -25%.
`CCNc1ncc2nc(-c3cccc(C#N)c3)c(=O)n(CCC#N)c2n1` gave EPAC2 ant val -7%.
For O=C(c1ccccc1)C(c1ccccc1)[n+]1csc2ccccc21 (stereo unspecified) the results were EPAC2 ant val 15%.
CC(=O)[C@@]1(O)[C@H](O)CC2C3CCC4CC(O)CC[C@]4(C)C3CC[C@@]21C (stereo partly specified) was read as EPAC2 ant val inconclusive.
CC(=O)N[C@@H](CSC/C=C(\C)CCC=C(C)C)C(=O)O was read as EPAC2 ant val -14%[11.4 µM].
O=C(C[n+]1ccncc1)c1ccc(Br)cc1 was read as EPAC2 ant val 26%.
COc1ccccc1-c1nccc(-n2ccnc2)n1 was read as EPAC2 ant val -11%.
CCCN(CC)C(CC)C(=O)Nc1c(C)cccc1C (stereo unspecified) was read as EPAC2 ant val inconclusive.
`COCCn1c(=O)c(CCc2ccccc2)nc2cnc(N3CCN(C)CC3)nc21` gave EPAC2 ant val -11%.
CC(=O)OC1CC[C@@]2(C)C(CC[C@@]3(C)C2CC=C2C4CC(C)(C)CC[C@]4(C(=O)O)CC[C@@]23C)C1(C)C (stereo partly specified) was read as EPAC2 ant val -7%.
Screening O=C(Nc1cccc(F)c1)N1CCCC2(CCN(C(=O)c3ccncc3)CC2)C1 returned EPAC2 ant val inconclusive.
